# Screens deposited in PubChem by several laboratories.
# GALR2 agonist: GALR2 (human) receptor agonism; O43603; GALR2-expressing cells, agonist activation read-out; activation, %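 (tested at 5 µM)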; hit rate 0.48% among 140,000;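 active = above mean plus 3 SD of all compounds, about 5% in these data, not always enough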;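 also: 0% = vehicle buffer wells and 100% = reference agonist at full effect; tested in CHO reporter cells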
# Target sequence (O43603 whole entry, looked up): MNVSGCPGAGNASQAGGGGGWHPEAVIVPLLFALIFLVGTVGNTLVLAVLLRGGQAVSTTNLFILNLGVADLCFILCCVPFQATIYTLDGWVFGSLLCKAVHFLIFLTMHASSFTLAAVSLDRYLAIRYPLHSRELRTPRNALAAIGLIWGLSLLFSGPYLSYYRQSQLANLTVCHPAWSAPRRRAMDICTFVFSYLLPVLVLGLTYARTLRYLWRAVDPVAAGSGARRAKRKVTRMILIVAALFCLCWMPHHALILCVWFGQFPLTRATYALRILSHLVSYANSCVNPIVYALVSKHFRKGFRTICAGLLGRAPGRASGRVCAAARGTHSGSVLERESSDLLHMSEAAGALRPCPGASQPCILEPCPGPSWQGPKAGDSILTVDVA
# HSV augment: increases HSV replication in cells; HSV replication augmentation in cells, fold increase; maximum fold increase; hit rate 0.005% among 220,000; AID 1956;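 active = peak rise of 1.5-fold or more in the series; inconclusive = self-fluorescent or not available for retest; tested in PC3 cells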;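 also: first round at 10 µM; read as green reporter fluorescence; hits show the peak of a series up to 25 µM; 1 = signal of infected wells without compound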
# PKD1 inh: inhibitors of human PKD1 kinase. inhibition, %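 (about 10 µM by stock and volumes)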. Q15139. PKD1 kinase fluorescence polarization assay. hit rate 0.056% among 200,000. AID 797;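 active = inhibition of 50% or more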;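 also: controls were vehicle for no effect and a reference inhibitor for full effect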
# INS promoter inh: TRM-6 insulin promoter activity inhibition; TRM-6 cells (human fetal islet line), insulin promoter-eGFP reporter, imaging; reporter expression induced with tamoxifen; inhibition, % at 2 µM; hit rate 0.9% among 130,000;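 active = inhibition above the mean plus 3 SD, with well images judged a real hit on visual review, cut at about 60% in these data, passing the limit was not always enough; inconclusive = inhibition over the cutoff but images rejected on review; inactive = inhibition not above the cutoff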
# RGS16-Gao HTS: RGS16-Galphao interaction regulator (human); AID 1441; hit rate 0.38% among 220,000; binding response (% of control), % at 10 µM; bead-based flow cytometry RGS16-Galphao binding, fluorescence; actives lie on both sides; O15492+P09471;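 active = below 25% or above 175%, edge rows of some plates excepted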;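 also: Galphao activated by GDP with aluminum fluoride before binding; 100% = wells without compound and 0% = beads without RGS; some results beyond the cut were filed as inactive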
# Target sequence (O15492 whole entry, looked up): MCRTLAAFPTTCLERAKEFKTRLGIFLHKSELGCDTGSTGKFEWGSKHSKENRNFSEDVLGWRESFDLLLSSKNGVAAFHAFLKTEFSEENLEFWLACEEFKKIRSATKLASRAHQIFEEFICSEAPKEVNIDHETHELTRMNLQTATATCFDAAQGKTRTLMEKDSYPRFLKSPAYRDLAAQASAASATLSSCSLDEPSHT
# Target sequence (P09471 whole entry, looked up): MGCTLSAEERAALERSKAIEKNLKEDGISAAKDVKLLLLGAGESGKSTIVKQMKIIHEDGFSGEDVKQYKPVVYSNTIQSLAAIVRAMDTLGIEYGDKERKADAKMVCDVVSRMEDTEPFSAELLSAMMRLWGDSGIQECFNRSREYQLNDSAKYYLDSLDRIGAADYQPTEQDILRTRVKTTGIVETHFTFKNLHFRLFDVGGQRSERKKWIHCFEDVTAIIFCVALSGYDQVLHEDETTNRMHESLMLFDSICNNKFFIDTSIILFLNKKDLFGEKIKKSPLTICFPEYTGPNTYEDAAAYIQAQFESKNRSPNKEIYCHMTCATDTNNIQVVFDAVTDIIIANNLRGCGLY
# INS promoter inh cell count: recorded beside INS promoter inh, whose call it bears; normalized cell count, %; measured here: cell count, toxicity; reference of the scale not given here;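 cells exposed to compound for 48 h; stained nuclei by imaging scaled within each plate; lower means fewer cells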
# HSV augment primary fold: recorded beside HSV augment, whose call it bears; fold increase; compound at 10 µM; measured here: primary screen fold increase 10 uM; tested in PC3 cells;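 GFP signal in the first replicate; 1 = infected wells without compound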
# The depositor's hits bear a star; i = inactive; ? = inconclusive; . = no result given.
SMILES,GALR2 agonist,HSV augment,HSV augment primary fold,PKD1 inh,INS promoter inh,INS promoter inh cell count,RGS16-Gao HTS
Cc1c(C(=O)O)cccc1N1C(=O)Nc2ccccc2N1O,-1.8,i,0.99,-3,42,69,75
CC(=O)Nc1ccc(Nc2nc3c(S(=O)(=O)c4ccc(C)c(C)c4)nnn3c3ccccc23)cc1,.,i,1.1,-2,.,.,94
O=C(NCc1ccco1)c1ccc(S(=O)(=O)N2CCOCC2)cc1,-2.2,i,1.1,2,43,98,89
CC(=O)/C(=N/Nc1cccc(C)c1)N1CCOCC1,-2.4,.,.,0,-38,91,106
CC(=O)Nc1cccc(NC(=O)C2CC(=O)N(c3ccc(C)cc3)C2)c1 (stereo unspecified),-1.9,i,0.9,-11,3,185,108
Cc1nc(NC(=O)c2cccc(Cl)c2)sc1C(=O)N1CCCCC1,.,i,0.87,-1,19,39,105
CCCCn1nnnc1SCC(=O)NNC(=O)C1CCCCC1,-2.0,i,1.1,-13,-3,115,107
COc1ccc(C(=O)NCC(=O)N/N=C/c2ccc([N+](=O)[O-])s2)cc1OC,.,i,0.92,-1,-20,70,92
CN1CCCC(OC(=O)c2cc(Cl)ccc2Cl)C1 (stereo unspecified),-1.2,i,0.97,6,14,80,102
C#CCOc1ccc(/C=N/O)cc1Cl,-1.1,i,1,-7,38,113,66
COc1ccc(NC(=O)C2CCCN(C(=O)NC3CCCCC3)C2)cc1OC (stereo unspecified),0.3,i,1.1,-1,.,.,101
COc1cccc2cc(C(=O)NCc3ccco3)c(=O)oc12,0.7,i,1,-1,-17,72,64
COc1ccc(C(=O)/C=C(\C)Nc2ccc3c(c2)OCO3)cc1,-2.4,i,0.83,3,-147,113,94
COC(=O)c1ccc(NC(=O)Cn2cnc3c(nnn3-c3cccc(OC)c3)c2=O)cc1,.,i,0.63,2,.,.,91
CCN(CC)S(=O)(=O)c1cccc(C(=O)N2CC(O)CC2C(=O)O)c1 (stereo unspecified),-0.7,i,0.98,3,-443,48,106
O=C1COc2ccc(C(=O)NC3CC3)cc2N1,.,i,0.96,-4,-36,56,107
CS(=O)(=O)Nc1ccccc1C(=O)NCc1ccco1,-0.4,i,1.1,0,35,118,102
CCCOc1cccc(/C=N/NC(=O)c2csc(C)c2C)c1,1.4,i,0.96,-5,24,153,106
COc1ccc(-n2cnc3cc(C(=O)NCCN4CCOCC4)ccc32)cc1,.,i,1,-5,.,.,102
CCOc1ccc2cc(S(=O)(=O)n3ccnc3C)ccc2c1,-0.7,i,1.1,-1,-58,80,95
COC(=O)c1ccc(C(=O)OC)c(NC(=O)COC(=O)CC2CC3CCC2C3)c1 (stereo unspecified),-4.9,i,0.95,4,14,168,-51
O=C(Nc1ccc(F)cc1)c1sccc1SCc1cccc(C(F)(F)F)c1,-0.7,i,1.2,-7,-27,105,99
O=c1[nH]c(CN2CCN(S(=O)(=O)c3cccs3)CC2)nc2c(Br)cc(Br)cc12,.,i,0.93,-6,.,.,101
COc1ccc(S(=O)(=O)N2CCCC(C(=O)O)C2)cc1Cl (stereo unspecified),-1.2,i,0.87,-1,0,128,93
CC(C)(C)C(=O)Cn1ncc(N2CCOCC2)c(Br)c1=O,.,i,1,-2,-20,138,116
# Next entries follow.
SMILES,GALR2 agonist,HSV augment,HSV augment primary fold,PKD1 inh,INS promoter inh,INS promoter inh cell count,RGS16-Gao HTS
CCCC(C)C(=O)NCc1ccncc1 (stereo unspecified),.,i,0.99,-5,-7,120,100
Cc1cccc(/C=N/n2c(-c3ccncc3)n[nH]c2=S)c1,1.4,i,0.97,9,16,109,89
COc1cc(CC(=O)OCC(=O)Nc2sccc2C(N)=O)cc(OC)c1OC,.,i,0.96,-7,91*,84*,108
CC(C)(C)NC(=O)NC(=O)COC(=O)COc1ccc2c(c1)CCC2,-1.1,i,0.79,-8,-76,130,98
Cn1c(CN2CCOCC2)nnc1SCC(=O)NCCc1ccccc1,-1.8,i,0.96,-6,-10,64,109
COc1ccc(OC)c(NC(=O)C2C3C=CC(C3)C2C(=O)NCc2ccccn2)c1 (stereo unspecified),-0.5,i,0.84,-13,.,.,98
Cc1nn(-c2cc(N3CCCCC3)ccc2[N+](=O)[O-])c(=O)c2ccccc12,-2.6,i,0.71,2,-71,101,93
C/C(=N\Nc1cc(N2CCOCC2)ncn1)c1cccc([N+](=O)[O-])c1,.,i,0.79,-3,17,157,105
CCCOc1ccc(C(=O)Nc2ccc(S(=O)(=O)Nc3onc(C)c3C)cc2)cc1,.,i,0.93,-5,-12,124,95
COc1ccc(C(=O)Nc2cccc(C)c2)cc1,-3.4,i,1,-5,.,.,99
CCOc1cc(-c2nc(-c3ccc(C)nc3OC)no2)cc(OCC)c1OCC,-1.0,i,0.77,0,-19,109,104
NC(=O)[C@@H]1CCOc2c(I)cc([N+](=O)[O-])cc2C(=O)N[C@@H](CO)C(=O)NCC(=O)N1,-0.3,i,0.96,4,35,124,110
CCOC(=O)c1sc(NNC(=O)c2ccc(F)cc2)nc1C,.,i,0.89,.,.,.,97
O=C(CC(c1ccccc1)c1ccccc1)NCc1cccnc1,-3.9,i,0.91,-16,-107,121,104
CC(=O)Oc1ccc(C(=O)Nc2nnc(C)s2)cc1,-1.6,i,0.91,-4,21,129,103
COc1cccc(/C=N/NC(=O)c2[nH]nc3c2CCc2ccccc2-3)c1,.,i,0.7,.,.,.,90
O=C(NCc1ccccc1)c1ccccc1CO,-0.5,i,0.74,-4,-8,100,109
CCc1ccc2[nH]c(=O)c(CN(Cc3ccccc3)Cc3nnnn3Cc3ccco3)cc2c1,-3.5,i,0.88,-7,35,124,99
CCCCN(CC)Cc1ccc(CNC(=S)Nc2ccc(C)cc2Cl)o1,.,i,1.1,6,.,.,99
Cc1oc(C(=O)O)cc1COc1ccc2c3c(c(=O)oc2c1C)CCC3,-1.1,i,0.83,2,-133,104,102
Cc1ccc(NCCC(=O)c2cccs2)cc1,.,i,0.92,4,.,.,97
Oc1oc(-c2ccco2)nc1C=Nc1ccccc1,-3.0,i,0.94,0,.,.,102
CCc1ccc2[nH]c(=O)c(CN(CCN(CC)CC)C(=S)NCc3ccco3)cc2c1,.,i,1,0,.,.,112
COCCN(CCOC)S(=O)(=O)c1ccc(C(=O)Nc2nnc(CSC)o2)cc1,.,i,1,1,.,.,95
CCOC1=C/C(=C/c2c(N)n3nc(S(=O)(=O)CC)sc3nc2=O)C=CC1=O,.,?,.,6,.,.,99
# Later entries
SMILES,GALR2 agonist,HSV augment,HSV augment primary fold,PKD1 inh,INS promoter inh,INS promoter inh cell count,RGS16-Gao HTS
C=CCNC(=O)c1ccncc1,-1.0,i,0.88,-5,0,121,115
Cc1nnc(SCc2cnc(-c3ccccc3)o2)[nH]c1=O,-2.7,i,1,-13,24,209,170
Cc1ccc(-c2nc3ccccc3c(=O)n2NC(=O)c2cccs2)cc1,-0.2,i,1,-1,-3,87,108
Cc1oc(C(C)(C)C)c(CN2CCOCC2)c1C(=O)O,.,i,0.91,3,.,.,103
CN(C)CCCCOc1ccc(Br)cc1Cl,.,i,0.89,0,-31,124,93
Cc1cc(C)nc(N/N=C/c2ccccc2OCc2ccc(Cl)cc2)n1,0.3,i,1.3,1,.,.,98
CC1CCN(S(=O)(=O)c2ccc(NC(=O)N3c4ccccc4Sc4ccccc43)cc2)CC1,-3.7,i,0.88,-5,.,.,103
CCCOc1ccc(CCC(=O)N/N=C/c2ccco2)cc1,.,i,1.1,.,.,.,99
C[C@H](NC(=O)c1nc[nH]c1C(=O)NC(c1ccccc1)c1ccccc1)C(=O)OCc1ccccc1,.,i,0.95,.,.,.,103
CCOC(=O)C1(CC2CCCCO2)CCN(Cc2nc3ccccc3nc2C)CC1 (stereo unspecified),.,i,0.93,-1,.,.,103
COC(=O)Nc1ccc(S(=O)(=O)NCc2ccccn2)cc1,.,i,0.95,2,-67,103,105
CC(=O)Nc1ccc(Nc2nc3ccccc3nc2NS(=O)(=O)c2ccccc2)cc1,.,i,1.2,.,.,.,99
COc1ccccc1-n1c(SCC(=O)Nc2ccc(F)cc2)nc2c(c1=O)SCC2,-1.0,i,0.94,-2,30,74,105
S=C1CCC(c2ccc(Cl)cc2)=NN1c1ccccc1,.,i,0.88,.,.,.,100
CCCCNC(=O)c1ccc(N2CCOCC2)c(NS(=O)(=O)c2ccc(OC)cc2)c1,-2.8,i,0.86,-9,.,.,101
O=C(CCSCc1ccccc1F)NCc1cccnc1,.,i,0.83,2,-17,122,99
COc1ccccc1N1C(=O)CC1(C#N)c1ccc(OCc2ccccc2)cc1 (stereo unspecified),0.8,i,0.97,-4,5,173,91
COc1ccc(N(CC(=O)N2CCN(c3cccc(C)c3)C(C)C2)S(=O)(=O)c2c(C)n[nH]c2C)cc1 (stereo unspecified),.,.,.,-8,64,55,94
CCc1cccc(N(C(=O)c2csnn2)C(C(=O)NC(C)(C)C)c2ccncc2)c1 (stereo unspecified),.,i,1,12,-92,110,105
COCC(=O)N(c1ccc(C(C)C)cc1)C1C=CS(=O)(=O)C1 (stereo unspecified),-1.4,i,0.81,0,-422,71,98
Cc1ccc(C(=O)Nc2ccc(S(=O)(=O)N3CCOCC3)cc2)cc1,.,i,0.87,9,.,.,104
CCOC(=O)C1C(=O)CC(C)(O)C(C(=O)OCC)C1c1cc(Br)ccc1OC (stereo unspecified),-0.6,i,0.93,1,-350,48,42
CC(C)Oc1ccc(/C=C(/NC(=O)c2ccccc2)C(=O)NCCC(=O)O)cc1,.,i,0.99,-4,11,143,106
O=C(Nc1nc(-c2ccc(S(=O)(=O)N3CCCC3)cc2)cs1)c1ccco1,-0.3,i,0.93,-4,-17,71,99
O=c1[nH]cc(COCc2ccccc2)c(=O)[nH]1,-3.2,i,1.1,2,60,132,100
# Carrying on:
SMILES,GALR2 agonist,HSV augment,HSV augment primary fold,PKD1 inh,INS promoter inh,INS promoter inh cell count,RGS16-Gao HTS
O=C(COC(=O)c1cccc(S(=O)(=O)N2CCc3ccccc32)c1)Nc1ncc(C(F)(F)F)cc1Cl,-1.0,i,1,7,24,117,103
COc1ccc(CNc2c(CO)cnc3c2cnn3C)cc1,.,i,0.65,-4,.,.,98
CC(C)(C)S(=O)(=O)c1nc2ccccc2s1,-1.0,i,1.1,4,14,100,106
Cc1ccc(-c2cnc(SCC(=O)N3CCCc4ccccc43)n2C)cc1,-3.0,i,0.87,-9,4,107,98
N#CCSC1=Nc2ccccc2C2=NC(CCC(=O)N3CCN(c4ccccc4)CC3)C(=O)N12 (stereo unspecified),1.0,i,0.75,-1,3,63,48
O=C(Nc1nccs1)c1c(O)c2c([nH]c1=O)CCCC2,.,i,1.2,.,.,.,104
COc1ccc([C@@H]2C=C(C(=O)O)O[C@H](OCCCCO)C2)cc1,.,i,0.77,.,.,.,103
O=C1c2ccccc2N(Cc2ccc(Cl)cc2)C2=NCCN12,-2.5,i,0.92,0,38,129,89
CCN(CC)C(=O)c1cccc2c1C(=O)c1ccccc1-2,0.2,i,0.93,4,-3,133,100
Cc1ccc(CNC(=O)COC(=O)CCC(=O)c2cccs2)cc1,.,i,1,-4,-22,74,100
Cc1nn(-c2ccccc2)c(N2CCCC2)c1/C=C1\N=C(c2ccc(F)cc2)OC1=O,-1.7,i,0.92,-15,33,216,104
Cc1nc2ccc(Br)cn2c1NC(C)(C)C,-3.1,i,1.3,-1,-9,89,101
N#Cc1ccsc1NC(=O)CN1CCCCCC1,-2.0,i,1,-5,27,93,95
CC1(C)NC(=O)N(CC(O)COc2ccccc2C(=O)Nc2ccccc2)C1=O (stereo unspecified),-1.1,i,0.99,-5,.,.,100
